# High-throughput results as filed in PubChem BioAssay.
# CBX7 AlphaScr: CBX7 chromodomain binding inhibitors, primary screen, biochemical, AlphaScreen | Chromobox protein homolog 7 (Homo sapiens), O95931 | AlphaScreen His6-CBX7 / biotin-H3K27me3 peptide binding; stronger effect = lower value | normalised signal (fraction of DMSO) (no concentration beside the values) | 66,000 tested, 1.1% active | AID 1224903, 2016; in the data active = normalised signal below about 0.5;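 note: 100 nL library stock added to about 20 µL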
# Target sequence (O95931 whole entry, looked up): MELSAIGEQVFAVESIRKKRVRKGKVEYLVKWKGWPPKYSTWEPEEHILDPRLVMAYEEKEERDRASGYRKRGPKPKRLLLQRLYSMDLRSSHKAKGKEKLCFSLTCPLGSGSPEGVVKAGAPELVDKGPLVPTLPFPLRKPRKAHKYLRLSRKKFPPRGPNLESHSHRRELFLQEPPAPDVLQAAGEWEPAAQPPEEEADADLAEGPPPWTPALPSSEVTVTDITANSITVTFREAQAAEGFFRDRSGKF
# CBX7 AlphaScr z-score: further read-out of CBX7 AlphaScr, marked with its call; z-score; measured here: z-score of CBX7 signal; some inactives read as strong as hits; reference of the scale not given here;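 same signal on another scale; lower means less binding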
# * = called active by the depositor. These rows are one share of the data; rates above refer to the full screens.
SMILES,CBX7 AlphaScr,CBX7 AlphaScr z-score
C=CCN(c1ccccc1)S(=O)(=O)c1ccc2[nH]cc(C(=O)NCCC(C)C)c(=O)c2c1,0.915,-1.3
O=C(NCCN1CCC(Cc2ccccc2)CC1)C1CCCN(S(=O)(=O)c2cccs2)C1 (centres undefined),0.974,-1.18
Cc1oc(-c2ccc(Cl)cc2)nc1CN1CCC(C(=O)NCCCN(C)Cc2ccccc2)CC1,1.12,0.727
COc1ccc(Nc2cc(C(=O)NCCCN3CCCC(C)C3)c3ccccc3n2)c(OC)c1 (centres undefined),0.703,-4.54
CSc1nnc(Cc2cc(=O)[nH]c(=O)[nH]2)n1-c1ccc(F)cc1,1.04,1
Cc1c(C(=O)NC2CCCC2)sc2nc(-c3ccc(F)cc3)cn12,1.03,1.04
CCN1C(=O)c2ccccc2S(=O)c2ccc(C(=O)NCc3ccc4c(c3)OCO4)cc21 (centres undefined),1.03,0.838
CCOc1ccc(C2NCCc3cc(OC)c(OC)cc32)cc1 (centres undefined),0.876,-0.169
O=C1CC(c2nc3ccccc3n2CCc2ccccc2)CN1c1ccccc1 (centres undefined),0.997,-0.0341
CCC(=O)NCCc1nc2ccccc2n1Cc1ccc(F)cc1,1.04,1.61
O=C(c1ccccc1)c1conc1C(=O)c1cccs1,1.09,0.847
CCCCCCNc1nc(CCCC)c2c(c1C#N)CC(C)(C)OC2,1.11,4.04
COc1ccc(OC)c(NC(=O)C2(S(=O)(=O)c3ccc(C)cc3)CC2)c1,0.972,-0.491
CCc1ccc(C2CC(=O)Nc3cc(OC)c(OC)cc32)cc1 (centres undefined),0.94,-0.243
CCCCn1cc(C2CC(=O)N(c3ccc(OC)cc3)C2=O)c2ccccc21 (centres undefined),0.901,-2.92

# Pulled one by one from above:
SMILES,CBX7 AlphaScr,CBX7 AlphaScr z-score
CSc1nnc(Cc2cc(=O)[nH]c(=O)[nH]2)n1-c1ccc(F)cc1,1.04,1
Cc1c(C(=O)NC2CCCC2)sc2nc(-c3ccc(F)cc3)cn12,1.03,1.04
CCN1C(=O)c2ccccc2S(=O)c2ccc(C(=O)NCc3ccc4c(c3)OCO4)cc21 (centres undefined),1.03,0.838
CCc1ccc(C2CC(=O)Nc3cc(OC)c(OC)cc32)cc1 (centres undefined),0.94,-0.243
C=CCN(c1ccccc1)S(=O)(=O)c1ccc2[nH]cc(C(=O)NCCC(C)C)c(=O)c2c1,0.915,-1.3
CCCCCCNc1nc(CCCC)c2c(c1C#N)CC(C)(C)OC2,1.11,4.04

# Molecules above with an NH in an aromatic ring (2):
SMILES,CBX7 AlphaScr,CBX7 AlphaScr z-score
C=CCN(c1ccccc1)S(=O)(=O)c1ccc2[nH]cc(C(=O)NCCC(C)C)c(=O)c2c1,0.915,-1.3
CSc1nnc(Cc2cc(=O)[nH]c(=O)[nH]2)n1-c1ccc(F)cc1,1.04,1

# More records
SMILES,CBX7 AlphaScr,CBX7 AlphaScr z-score
COc1cccc(-c2nc(CS(=O)(=O)CC(=O)NCCc3cc(OC)ccc3OC)c(C)o2)c1,0.769,-1.96
O=C(Nc1cccc(F)c1)C1CCCN(S(=O)(=O)c2cccc3cccnc23)C1 (centres undefined),0.784,-2.32
COc1cc2c(C(=O)N3CCCC(C)C3)cn(C)c(=O)c2cc1OC (centres undefined),1.01,0.384
O=C(NC1CCCCC1)c1ccc2nc(-c3cccs3)c(-c3cccs3)nc2c1,1.09,0.0943
COc1cccc(OC)c1NC(=O)CC(Cc1ccc(Cl)cc1)C(=O)O (centres undefined),1,0.0111
CCCOC(=O)c1ccc(NC(=O)c2ccccc2OC)cc1,1.19,1.95
Cc1ccc(NC(=O)c2cccc3c2C(=O)N(C2CCCCC2)C3)cc1,0.995,-0.188
CCN1C(=O)c2ccccc2S(=O)(=O)c2ccc(C(=O)NCCN3CCCC3)cc21,1.05,1.37
O=C(Nc1ccc(Cl)cc1)c1cnn(-c2ccccc2)c1C1CCNCC1,1.05,1.16
CC(=O)N1CCc2cc(S(=O)(=O)NCCC(=O)NC3CCCC3)ccc21,0.994,-0.259
COc1ccccc1C(=O)Nc1c2c(nn1-c1ccccc1)CSC2,1.09,2.28
CCOC(=O)N1CCC(NC(=O)CS(=O)(=O)Cc2nc(-c3cccc(Cl)c3)oc2C)CC1,0.971,-1.37
O=C1Cc2cc(S(=O)(=O)N3CCCC(C(=O)O)C3)ccc2N1 (centres undefined),0.965,-0.623
CC(C)Oc1ccccc1NC(=O)C1OC2OC3(CCCCC3)OC2C2OC3(CCCCC3)OC12 (centres undefined),0.846,-3.05
Cc1ccc(CNC(=O)CS(=O)(=O)Cc2nc(-c3cccc(Cl)c3)oc2C)cc1,1.04,1.84

# Look-ups from the results shown:
# `CCOC(=O)N1CCC(NC(=O)CS(=O)(=O)Cc2nc(-c3cccc(Cl)c3)oc2C)CC1` in CBX7 AlphaScr z-score is entered as -1.37
# `O=C(Nc1ccc(Cl)cc1)c1cnn(-c2ccccc2)c1C1CCNCC1` in CBX7 AlphaScr is entered as 1.05

# Next part
SMILES,CBX7 AlphaScr,CBX7 AlphaScr z-score
Cc1ccc2cc(CCNC(=O)c3ccc4c(c3)OCO4)c(=O)[nH]c2c1,1.03,0.333
CCCC(=O)NC(c1ccc(C(C)C)cc1)c1cc(Cl)c2cccnc2c1O (centres undefined),0.823,-0.623
Cc1nn(Cc2ccc(Cl)c(Cl)c2)c(C)c1NC(=O)c1cc(-c2ccc(F)cc2)on1,0.999,-0.000948
CCc1ccccc1NC1c2ccccc2C(=O)N1c1ccc(C)cn1 (centres undefined),1.04,1.48
Cc1ccc(CNC(=O)CCCn2c(=O)c3sccc3n(Cc3cc(C)ccc3C)c2=O)cc1,1.06,1.35
COc1ccc2oc(C(O)c3c(C)oc4ccc(OC)cc34)cc2c1 (centres undefined),0.947,-2.04
CCOC(=O)c1cnc2ccc(OC)cc2c1Nc1ccc(O)cc1,1.06,0.258
O=C1Cc2cc(S(=O)(=O)N3CCC(C(=O)O)CC3)ccc2N1,1,0.031
Cc1ccc(C(=O)Nc2c3c(nn2-c2ccc(F)cc2)CSC3)cc1C,1.01,0.193
Cc1ccc(NC(=O)CCc2nnc3ccc(NCCC4=CCCCC4)nn23)cc1,1.09,1.62
Cc1ccc(CN2C(=O)CCC2C(=O)NCc2cccnc2)cc1 (centres undefined),0.992,-0.294
CCc1nc(SCc2ccc(Cl)c(Cl)c2)c(C#N)c2c1CCCC2,1.78,1.59
Cc1ccc(S(=O)(=O)c2nc(-c3cccs3)oc2SCC(=O)NC2CCCCC2)cc1,0.927,-0.127
CCC(C)NC(=O)c1cn(C)c(=O)c2cc(OC)c(OC)cc12 (centres undefined),1.04,0.596
Cc1cc2ccccc2c(=O)n1CC(=O)Nc1ccc2c(c1)OCCO2,1.12,3.02

# Arranged by formula weight (highest first): three of the compounds above
SMILES,CBX7 AlphaScr,CBX7 AlphaScr z-score
Cc1ccc(NC(=O)CCc2nnc3ccc(NCCC4=CCCCC4)nn23)cc1,1.09,1.62
Cc1ccc(C(=O)Nc2c3c(nn2-c2ccc(F)cc2)CSC3)cc1C,1.01,0.193
O=C1Cc2cc(S(=O)(=O)N3CCC(C(=O)O)CC3)ccc2N1,1,0.031

# Continuation.
SMILES,CBX7 AlphaScr,CBX7 AlphaScr z-score
COc1ccc(-c2cc(C#N)nc(N3CCN(c4ccccc4)CC3)n2)cc1,1.02,0.569
O=C(CC1(CC2=NS(=O)(=O)c3ccccc3N2)CCCC1)NCCc1ccccc1,1.06,2.42
O=C(c1cc2c(s1)-c1ccccc1OC2)N1CCC(Cc2ccccc2)CC1,1.19,9.04
COc1cc(OC)c(Nc2nc(-c3ccccc3Cl)nc3ccccc23)cc1Cl,1.08,0.985
CCN(c1ccccc1)S(=O)(=O)c1ccc2[nH]cc(C(=O)NCc3ccccc3)c(=O)c2c1,1.03,0.859
O=C(NCc1cccs1)c1cc(-c2ccc(O)cc2)on1,1,0.0422
Cc1ccc(NC(=O)C2CCN(S(=O)(=O)c3ccc4c(c3)CCC(=O)N4)CC2)cc1Cl,1.17,2.05
CC(=O)Nc1ccccc1-c1nc2ccc(C(=O)NCCCN3CC(C)CC(C)C3)cc2[nH]c1=O (centres undefined),1.06,1.09
CCOC(=O)c1cnc2c(C)cc(C)cc2c1Nc1ccc2c(c1)OCCO2,1.07,0.719
CCN(CC)CCCNC(=O)CCCNC(=O)Cn1cnc2sc(C)c(C)c2c1=O,0.95,-1.02
Cc1nnc(Nc2ccccn2)c2ccccc12,0.809,-3.41
Cc1cc(Nc2ccc(Br)cc2)n2ncnc2n1,1.1,3.92
COc1cc(CNC(C)(C)CO)cc(Br)c1OCc1ccc(F)cc1,1.06,1.98
CCOCCCNC(=O)CSCc1nc(-c2ccccc2C)oc1C,1.01,0.0474
CCCCN(C)C(=O)CN1C(=O)CCSc2ccccc21,0.942,-1.12
COc1ccccc1NC(=O)Cn1cnc2sc(C)c(C)c2c1=O,1.2,2.58
CC(C)CC(=O)N1CC(=O)Nc2ccc(Cl)cc2C1c1ccc(F)cc1 (centres undefined),1.01,0.127
CCOc1ccc2nc(Nc3nc4ccccc4c(=O)[nH]3)nc(C)c2c1,1.04,0.146
CC1CCC(NC(=O)CN2CCN(Cc3ccc(F)cc3)C2=O)CC1 (centres undefined),0.996,-0.0884
O=C(NCCN1CCOCC1)c1ccc2nc(-c3cccs3)c(-c3cccs3)nc2c1,1.11,0.298
CC1CCCCC1NC(=O)c1cc2sc(Cl)cc2n1C (centres undefined),0.908,-3.69
Cc1cccc2c1-c1sc(C(=O)N3CCCCC3C)cc1CO2 (centres undefined),1.17,5.79
Cc1ccc(CC(=O)Nc2nnc(CC(C)C)s2)cc1,0.895,-1.24
Cn1c(=O)[nH]c(=O)c2c1nc(CN1CCOCC1)n2Cc1ccc(F)cc1,1.03,1.03
CCc1c(C)[nH][n+]2cnn(Cc3ccc(Cl)cc3)c2c1=O,0.708,-1.15
Cc1ccc(CNC(=O)c2c[nH]n3c(=O)c(Cc4ccc(Cl)cc4)c(C)nc23)cc1,1.17,1.59
Cc1ccc(C)c(NC(=O)CN(C)S(=O)(=O)c2cccc3cccnc23)c1,0.898,-1.21
CCOC(=O)c1sc2nc(C)nc(NC(C)CC)c2c1C (centres undefined),1.07,2.01
CCOc1ccc2c(c1)c(=O)c(S(=O)(=O)c1ccccc1)cn2CC(=O)Nc1ccccc1OC,0.75,-4.11
Cc1ccccc1NC(=O)C1CCCN(S(=O)(=O)c2cccnc2)C1 (centres undefined),1,0.0049
CCOC(=O)c1cnc2ccc(Cl)cc2c1Nc1ccc2c(c1)OCCO2,0.897,-2.86
COc1ccc(Nc2cc(C(=O)N3CCCCC3)c3ccccc3n2)c(OC)c1,0.691,-4.72
CC(=O)N1CCCc2cc(S(=O)(=O)N3CCN(c4cccc(Cl)c4)CC3)ccc21,1.07,1.32
FC(F)(F)c1cc(-c2ccccc2)nc(NCc2cccs2)n1,1.01,0.157
O=C(Cn1nc(Cc2ccncc2)c2ccccc2c1=O)NCc1cccs1,1.03,0.782
COc1ccc(/C=C\c2onc(C)c2S(=O)(=O)N2CCC(C(=O)NCCC(C)C)CC2)cc1,0.905,-0.196
Cc1onc(-c2ccccc2Cl)c1C(=O)N1C(C)CCCC1C (centres undefined),0.97,-0.466
CCn1c(C(C)NC(=O)c2ccc(F)cc2)nc2ccccc21 (centres undefined),1.11,1.24
Cc1ccc(Cn2c(=O)c3cccnc3n(CC(=O)Nc3cccc(Cl)c3)c2=O)cc1,1.07,1.27
Cc1ccc(-n2ncc(C(=O)O)c2C2CCN(C(=O)OC(C)(C)C)CC2)cc1,1.02,1.03
CCCCNC(=O)CN1CCN(Cc2ccccc2C)C1=O,1,0.0441
O=C(Nc1ccc2oc(-c3ccc(Cl)c(Cl)c3)nc2c1)c1ccc(-c2cc(Cl)ccc2Cl)o1,1.07,2.09
Cc1ccc(-c2ccc(=O)n(CCC(=O)NCCC(C)C)n2)cc1,0.998,-0.0631
CCCCSCCCNC(=O)C1CCN(Cc2nc(-c3ccccc3C)oc2C)CC1,1.13,1.07
Cc1cccc(NC(=O)CC2Nc3ccccc3NC2=O)c1 (centres undefined),0.898,-0.235
Cc1ccc(OCc2nc(C#N)c(N3CCN(c4ccccc4)CC3)o2)cc1,0.458*,-6.87*
CCCCN(CCCNC(=O)c1cc(=O)[nH]c2ccccc12)Cc1ccccc1,0.856,-1.7
Cc1ccc(C)c2[nH]c(=O)c(CCNC(=O)C(C)C)cc12,1.19,1.25
COc1ccc(CNC(=O)C2CC(=O)N(c3ccc(OCc4ccccc4Cl)cc3)C2)cc1 (centres undefined),1.05,1.35
Cn1c(=O)n(CC(=O)N2CCN(c3cccc(Cl)c3)CC2)c(=O)c2ccccc21,0.919,-1.16
CCOC(=O)c1cccc(NC(=O)CCNS(=O)(=O)c2ccc3c(c2)CCN3C(C)=O)c1,0.989,-0.453
Cc1cc(C)cc(NC(=O)C2CCCN(c3nnc(-n4cccc4)s3)C2)c1 (centres undefined),1.07,1.57
Cc1cc(N2CCC(C)CC2)nc2ccc(NC(=O)c3cccc(Cl)c3)cc12,0.887,-1.9
CCOC(=O)c1cnc2c(C)cc(Cl)cc2c1Nc1ccc(C)c(Cl)c1,1.32,1.41
Cc1ccc(CSc2nc3ccncc3n2CC(=O)Nc2ccc(C(C)C)cc2)cc1,0.753,-0.997
Cc1ccc(OCC(O)CN2CCN(c3ccccc3)CC2)cc1 (centres undefined),1.01,0.0875
COc1ccc(CCC(=O)Nc2ccc(-c3noc(-c4cccs4)n3)cc2)cc1,1.01,0.566
Cc1ccccc1C(=O)Nc1nc(-c2ccc(Oc3ccccc3)cc2)cs1,1.02,0.39
Cn1c(C(=O)N2CCCC(C(=O)N3CCN(Cc4ccc5c(c4)OCO5)CC3)C2)cc2sccc21 (centres undefined),0.831,-4.86
CCOc1ccc(NC(=O)COc2cc(=O)n(C)c3ccccc23)cc1,0.81,-3.1
CS(=O)(=O)N1CCC(C(=O)NCc2ccc(F)cc2)CC1,1.01,0.368
CC(NC(=O)c1cnc2sccn2c1=O)c1ccccc1 (centres undefined),0.918,-1.86
Cc1cc(N2CCN(c3ncccn3)CC2)nc2ccc(NC(=O)Cc3ccc(Cl)cc3)cc12,1.04,1.9
